# Tgondii IFNg = T. gondii growth inhibition under IFN-gamma; Toxoplasma gondii growth in IFN-gamma-treated host cells; stronger effect = lower value; reference of the scale not given here; activity change, negative = inhibition, %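 (about 20 µM by stock and volumes)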; 3.8% of 69,000 active; AID 1259416;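 active means below -70%; inconclusive means fit judged invalid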;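 further: host cells are HeLa cells infected with Toxoplasma gondii; parasite growth read as luciferase light; one replicate is shown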
# Numbers without * were called inactive; i = inactive; ? = inconclusive; & = joins results of further samples. These rows are one share of the data; rates above refer to the full screens.
SMILES,Tgondii IFNg
CCOc1ccc(-c2nc(Cn3ccn4nc(-c5ccc(OC)cc5)cc4c3=O)c(C)o2)cc1OC,45.6
NC(=O)c1ccnc(N2CC[C@@H](N3CCOCC3)[C@H](O)C2)c1,-7.4
COc1ccc(NC(=O)Cn2nnc3sc4c(c3c2=O)CCC(C(C)(C)C)C4)cc1 (stereo not drawn),1.5
c1ccc2c(c1)c(N1CCOCC1)nn1nnnc21,-4.4
Cc1ccc(S(=O)(=O)N[C@@H](Cc2ccccc2)C(=O)CCl)cc1,-8.7
Cc1cccc(S(=O)(=O)N[C@H]2CC[C@@H](CCNC(=O)Nc3cc(F)ccc3F)O[C@@H]2CO)c1,-41.3
CCc1nc(OCC(=O)Nc2ccccc2C(F)(F)F)c2ccccc2n1,-3.6
CC1c2ccsc2CCN1S(C)(=O)=O (stereo not drawn),-35.5
CC1(C)CN=C(N2CCN(c3c4c(c(C#N)c5nc6ccccc6n35)CCC4)CC2)S1,37.3
O=C(c1ccco1)N1CCC2(CC1)Cc1ccccc1CNC2=O,1.7
Clc1cnccn1,19.9
N#Cc1c(=O)c2ccccc2n2ccccc12,-29.2

# As entered above:
# Under Tgondii IFNg, Cc1ccc(S(=O)(=O)N[C@@H](Cc2ccccc2)C(=O)CCl)cc1 is listed with -8.7
# Under Tgondii IFNg, CC1(C)CN=C(N2CCN(c3c4c(c(C#N)c5nc6ccccc6n35)CCC4)CC2)S1 is listed with 37.3

# Other results:
SMILES,Tgondii IFNg
COc1cccc([C@@H]2CCCN(Cc3cc4n(n3)CCCNC4)C2)c1,-25.7
CCCNC(=O)C[C@@H]1CC[C@H]2[C@H](COc3ccc(NC(=O)CC)cc3C(=O)N2C)O1,-11.5
c1cncc(CNc2nc(-c3ccncc3)nc3c2CCNC3)c1,?
O=C(c1cnn2c1CCCC2)N1CCCC1c1ccccn1 (stereo not drawn),22.1
CC(=O)c1cnc2nc(SCc3ccc(C)cc3)nn2c1C,28.2
COCC(=O)N1CC[C@H]2[C@H]1CCC(=O)N2CC1CC1,68.8
O=c1c(N2CCOCC2)nnc2sc3ccccc3n12,38.2
Cc1ccccc1SCC(=O)N1CCCN(C)C2(CCN(C)CC2)C1,-0.9
C[C@@H]1CN([C@@H](C)CO)C(=O)c2c(c3ccccc3n2C)-c2ccccc2CO[C@@H]1CN(C)C(=O)[C@@H](Cc1ccccc1)N(C)C,-31.1
CN(Cc1ccc(-n2cccn2)cc1)Cc1sc(N(C)C)nc1Cl,-25.6
COc1cc(C(=O)NC(C)c2nc(-c3ccc(C)cc3)n[nH]2)cc(OC)c1OC (stereo not drawn),102.6
CCOC(=O)c1csc(CS(=O)(=O)Cc2ccco2)n1,21.4
O=C(CCN1CCCCC1)N[C@H]1CC[C@H](CCn2cc(-c3cccc(F)c3)nn2)O[C@@H]1CO,-9.7
CCCC(NC(=O)c1ccnn1C(C)C)c1cccs1 (stereo not drawn),19.2
COc1ccc(-c2csc(-n3nc(C(F)(F)F)cc3-c3ccc(C)cc3)n2)cc1,9.9
CCCN1C[C@@H](C)[C@H](OC)CN(C)C(=O)c2cc(NS(=O)(=O)c3ccccc3)ccc2OC[C@@H]1C,-7.2
CCN(CC)CCNC(=O)c1cc(S(C)(=O)=O)ccc1OC,5.4&9.6&13.9
COc1ccc(COc2cc3oc(=O)c4cc(C(C)O)ccc4c3cc2OC)cc1 (stereo not drawn),-6.1
COCCN(C)c1nc(C2CCN(C(=O)c3ccco3)CC2)cc2c1ncn2C,-13.0
CCn1c(=O)c(C(=O)Nc2cccc(C)c2)c(O)c2ccccc21,30.7
CCc1cccc(C)c1NC(=O)Cn1c(=O)cc(C(=O)N2CCCCC2)c2ccccc21,15.9
Cc1nc(-c2cccc(F)c2)sc1CCNC(=O)C(=O)Nc1ccccc1F,22.7
Cc1nc(C2CCNCC2)ncc1C(N)=O,1.0
Cn1cccc1C(=O)Nc1ccc2c(c1)CCC(=O)N2,49.0
Cc1nonc1NC(=O)CSc1nnnn1-c1ccccc1,31.6
CCCSCCCNc1nc(-c2nnc(-c3cccc(C)c3)o2)nc2ccccc12,-106.6*
Cc1cc(C(=O)NCc2ccc(-n3cncn3)cc2)n[nH]1,-4.8
COC(=O)c1c(N)sc2c1CC(C)(C)OC2,24.8
O=S1(=O)c2ccccc2OCC2(CCN(Cc3ccccc3)CC2)CN1CC1CC1,-34.6
FC(F)(F)c1oc(-c2ccc(Cl)cc2)cc1-c1nnc(-c2ccco2)o1,37.5
CO[C@@H]1CCN(S(=O)(=O)c2cccs2)[C@H]1Cc1cnn(C)c1,-1.4
CCOc1ccccc1NC(=O)C(=O)NCCc1csc(-c2ccc(Cl)cc2)n1,-51.4
CCn1c(=O)c(-c2nc(-c3ccc(OC)cc3)no2)c(O)c2ccccc21,67.0
O=c1c2c3c(sc2ncn1CCSc1cn[nH]n1)CNCC3,-5.0
Cc1noc(C)c1NC(=O)N(C)C[C@H]1OCCCC[C@@H](C)Oc2ccc(NC(=O)Nc3ccc(C(F)(F)F)cc3)cc2C(=O)N([C@H](C)CO)C[C@@H]1C,72.2
CCOC(=O)C(NCCc1ccccc1)(NC(C)=O)C(F)(F)F (stereo not drawn),15.3

# Looked up by structure from above (2):
SMILES,Tgondii IFNg
Cc1cc(C(=O)NCc2ccc(-n3cncn3)cc2)n[nH]1,-4.8
Cc1nonc1NC(=O)CSc1nnnn1-c1ccccc1,31.6

# Going on with the list:
SMILES,Tgondii IFNg
Cc1ccc(S(=O)(=O)Oc2ccccc2/C=N/N=C(N)N)cc1,-35.1
Cc1oc(-c2ccccc2)nc1Cn1nnc(-c2nc(-c3cccc(Cl)c3)no2)c1C,15.4
CCOC(=O)c1cc(-c2ccc(C)cc2)no1,-13.0
CC(C)CN1CCN(C(=O)NCc2ccc(Cl)cc2)C(C)C1=O (stereo not drawn),1.1
COc1cccc(OCC(O)CNC(=O)C2CCN(c3nc(C)c4ccccc4n3)CC2)c1 (stereo not drawn),-7.9
c1cc(-c2ccc(Cn3ccnc3)cn2)n2nccc2c1,6.2
Cn1ccnc1CNC(=O)CC(c1cccc(O)c1)c1ccccc1Cl (stereo not drawn),-7.7
CCc1cn[nH]c1C1CCN(C(=O)c2cccc3c2NCCC3)CC1,-2.6
CSc1sc(-c2nc(C)cs2)c(C)c1-c1ccn[nH]1,-85.6*
Cc1ccc(NC(=O)CC(=O)NCc2ccc(CN3CCCC3)cc2)cc1,-21.0
Cn1c(CCNC(=O)c2cc(=O)[nH]c(-c3ccccc3)n2)nc2ccccc21,13.6
CC(=O)NCCc1sc(-c2ccc(F)cc2)nc1C,183.7

# Structural class, the entries above with an NH in an aromatic ring (six)
SMILES,Tgondii IFNg
COc1cc(C(=O)NC(C)c2nc(-c3ccc(C)cc3)n[nH]2)cc(OC)c1OC (stereo not drawn),102.6
Cc1cc(C(=O)NCc2ccc(-n3cncn3)cc2)n[nH]1,-4.8
O=c1c2c3c(sc2ncn1CCSc1cn[nH]n1)CNCC3,-5.0
CCc1cn[nH]c1C1CCN(C(=O)c2cccc3c2NCCC3)CC1,-2.6
CSc1sc(-c2nc(C)cs2)c(C)c1-c1ccn[nH]1,-85.6*
Cn1c(CCNC(=O)c2cc(=O)[nH]c(-c3ccccc3)n2)nc2ccccc21,13.6

# Next part.
SMILES,Tgondii IFNg
CC(=O)N[C@H]1CCN(C(=O)c2cccc(-c3cccc(F)c3)c2)C1,7.4
COC(=O)c1sccc1NC(=O)c1nc(-c2ccc(C)cc2)n2c1CCCCC2,-97.0*
O=C(NCC[C@@H]1CC[C@@H](NC(=O)C2CCOCC2)[C@H](CO)O1)c1cc(Cl)cc(Cl)c1,21.5
CC(=O)N[C@@H](C)C(=O)Nc1cc(C)ccc1NC(=O)c1ccccc1,-39.0
CCOc1ccc(-c2cc3c(=O)n(Cc4nc(-c5ccc(OC)cc5)oc4C)ccn3n2)cc1,26.4
CS(=O)(=O)N1CCC(N2CCCC2c2ccccn2)CC1 (stereo not drawn),-59.2
CCc1cc2c(=O)n(CC(=O)Nc3nc(CC(N)=O)cs3)cnc2s1,-3.5
CCCn1ncc(C(=O)NCCc2nc(C)c3c(n2)CCCC3)c1C,-44.7
CN(Cc1cc(C(C)(C)C)n[nH]1)c1nccc(N2CCCC(O)C2)n1 (stereo not drawn),-7.3
CNC(=O)CC(C)N(C)Cc1cc(F)c(F)c(F)c1 (stereo not drawn),-1.5
Cc1ccc(S(=O)(=O)NCCc2sc(-c3ccccc3)nc2C)cc1C,80.5
O=S(=O)(c1ccccc1)N1CCc2c([nH]c3ccccc23)C1c1ccc(F)c(F)c1 (stereo not drawn),-58.9
COC(=O)C[C@@H]1CC[C@H]2[C@@H](COc3ccc(NS(=O)(=O)c4ccc(C)cc4)cc3C(=O)N2C)O1,3.7
CCOC(=O)CN1Cc2ccccc2C2(CCN(S(=O)(=O)N(C)C)CC2)C1,-2.4
CCCCN(Cc1ccc(F)cc1)C(=O)C1(N)CC1,0.8
Cc1cccc(CN2C[C@@H]3CN(C(=O)c4ccnnc4)C[C@H]3C2=O)c1,69.5
CCn1nc(-c2ccc(Cl)cc2)cc1C(=O)O,8.4
Cc1cccc2cc(CN(C(=O)c3ccco3)C3CCCCC3)c3nnnn3c12,-39.8
Cc1ccccc1S(=O)(=O)N1CCCCN2[C@@H](CO)[C@H](c3ccc(C#CCN(C)C)cc3)[C@@H]2C1,8.0
COc1cccc(CN2CC3(C2)CN(C(=O)C2CC2)[C@@H](CO)c2[nH]c4cc(OC)ccc4c23)c1,47.8
COc1cc(C(=O)N2CCN=C2c2ccccc2)cc(OC)c1OC,-10.7
COCCN1CCN(C(=O)Cc2ccsc2)Cc2ccc(C)nc21,-1.5
COCC1CN(CCc2ccccc2)CCN(C(=O)CCc2ccccc2)C1 (stereo not drawn),138.5
N[C@H]1CN[C@H](C(=O)N2CCN(C3CCCCC3)C(=O)C2)C1,-26.3
COc1cccc(-c2nccn2CCc2cnc[nH]2)c1OC,7.7
COc1cccc(NC(=O)CNCc2ccccc2)c1,11.8
O=C(O)c1ccccc1C(=O)Nc1ncccc1OCc1ccc(Cl)c(Cl)c1,28.6
CS(=O)(=O)NC1CCOC2(CCN(Cc3cccs3)CC2)C1 (stereo not drawn),1.5
Cc1ccc(-c2nc(CCNC(=O)c3ccc(C(F)(F)F)cc3)cs2)cc1,i
C=CCN1C(=O)COC2(CCN(Cc3nccn3C)CC2)C1C (stereo not drawn),85.4
COc1ccc([C@@H]2C[C@H](NC(C)=O)C[C@H](CC(C)C)O2)c(OC)c1OC,-0.7
O=C(c1ccc(Cl)cc1)N1CCC2(CC1)COCCN(Cc1ccncc1)C2,-12.7
O=c1c2[nH]c3ccccc3c2ncn1CCC1=CCCCC1,-10.0
C=CCN1CC(C(=O)N2CCN(CC(=C)C)CC2)CC1=O (stereo not drawn),-4.9
COc1cccc(C#Cc2ccc([C@@H]3[C@H](C#N)N(C(=O)c4ccccn4)[C@H]3CO)cc2)c1,-63.5
CC(C)c1noc(-c2cc(=O)n(CC(=O)Nc3cccc(F)c3)c3ccccc23)n1,40.2
Cc1oc(-c2ccccc2)nc1Cn1ccn2nc(-c3ccccc3)cc2c1=O,19.9
CN(C)CCNC(=O)c1cc(-c2cnc(-c3ccnn3C)nc2)cn1CC1CC1,1.4
Cc1ccc(S(=O)(=O)NCC[C@@H]2CC[C@H](NC(=O)c3cccnc3)[C@@H](CO)O2)cc1,-15.7
O=C(Nc1ccc(O)cc1)c1ccccc1O,38.8
O=C(c1ccco1)N1C[C@@H]2CCCN(C(=O)CO)[C@@H]2C1,-36.1
N#C[C@@H]1[C@@H](c2ccc(-c3cccc(F)c3)cc2)[C@@H](CO)N1C(=O)NC1CCCC1,-6.1
Cc1ccc(N2C(=O)C3C4C=CC(CNC(=O)OCc5ccccc5)(O4)C3C2=O)cc1 (stereo not drawn),-7.4
Cc1cc(C)cc(N2CCN(Cc3ccccc3OCCO)CC2=O)c1,3.6
Cc1cccnc1N1CCN(C(=O)[C@H]2Cc3ccccc3CN2)CC1,25.5
O=C(C[C@H]1CC[C@H]2[C@@H](COC[C@@H](O)CN2Cc2nccs2)O1)N1CCC(Cc2ccccc2)CC1,-38.1
CN1CCc2ncc(CNC(=O)c3nccn3C)n2CC1,4.6
COCCN1C2(CCN(C(=O)c3ccno3)C2)c2ccccc2S1(=O)=O (stereo not drawn),-2.8

# Shown with each value named: entries from further up
Cc1oc(-c2ccccc2)nc1Cn1ccn2nc(-c3ccccc3)cc2c1=O
  Tgondii IFNg: 19.9

CN(C)CCNC(=O)c1cc(-c2cnc(-c3ccnn3C)nc2)cn1CC1CC1
  Tgondii IFNg: 1.4

CN1CCc2ncc(CNC(=O)c3nccn3C)n2CC1
  Tgondii IFNg: 4.6

N#C[C@@H]1[C@@H](c2ccc(-c3cccc(F)c3)cc2)[C@@H](CO)N1C(=O)NC1CCCC1
  Tgondii IFNg: -6.1

# (cont.)
SMILES,Tgondii IFNg
COc1cccc(CN2CCC3(CC2)CC(Nc2ncccn2)C3)n1,6.8
CC(C(=O)c1ccc(-c2ccccc2F)cc1)N1CCN(c2ccc(C#N)cc2)CC1 (stereo not drawn),50.8
Cc1c(Cl)cccc1NC(=O)Cn1ncc2c(N3CCCCCC3)ncnc21,-46.2
CN(C)CC(=O)N1[C@H](C(=O)Nc2nccs2)[C@@H](CO)[C@@H]2Cn3c(ccc(C4=CCCCC4)c3=O)[C@@H]21,1.2
CN1C[C@@H](NC(=O)C2CCC2)C[C@H]1C(=O)NCCc1c[nH]c2ccccc12,0.6
Cc1cc(C)c(NC(=O)Cn2ncc3c(N4CCN(c5ccccc5)CC4)ncnc32)c(C)c1,52.7
CC(=O)N1CC[C@@H]2[C@@H](CO)Nc3ccc(-c4ccccc4)cc3[C@@H]21,11.4
CCOCC1CN(Cc2ccc(F)cc2)Cc2nn(CC3CC3)cc21 (stereo not drawn),8.8
COc1ccc(CNC(=O)CSCc2ccccc2)cc1,-5.0
CCN(CC)C(=O)/C(C#N)=C/c1cc(O)c(O)c([N+](=O)[O-])c1,14.1
Cc1cc(C)n(C)c(=O)c1C(=O)NCc1cn2c(n1)SCC2,48.9
COCCN1CCC2(CC1)OC(C(=O)N1CCCC1)Cn1ccnc12 (stereo not drawn),-50.1
COc1ccc(NC(=O)Cn2c(=O)cc(C(=O)N3CCCC3)c3ccccc32)cc1OC,3.5
CO[C@H]1CN(C)C(=O)c2cc(NC(=O)NC(C)C)ccc2OC[C@@H](C)N(C(=O)CN(C)C)C[C@H]1C,1.4
CN(Cc1cccnc1)C1CCN(C(=O)c2cccn2C)C(C(=O)O)C1 (stereo not drawn),14.5
